Source: PubChem BioAssay (several laboratories)
Mtb hypoxia inh: PubChem AID 1159583; M. tuberculosis hypoxia-regulated fluorescent reporter, fluorescence; fluorescence inhibition, % (no concentration beside the values); actives 0.1% (n = 300,000);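 active = 35 to 45% if threefold the growth effect, above 45% if 1.5-fold the growth effect; inactive = the rest, general growth blockers included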;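 note: wells of about 50 µL received 100 nL stock; 0% = vehicle wells and 100% = reference inhibitor wells; whole bacteria with a GFP reporter of the hypoxia response; strong numbers were not always called active; many hits fall short of the cut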
Autofluor counter: compound fluorescence in toxin protease inhibitor counterscreen; compound autofluorescence counterscreen, microsphere flow cytometry; hits give high values; fluorescence intensity (test concentration not listed); actives 3.1% (n = 360,000); AID 624483;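 active = at least 3 SD above the mean of all compounds, about 16000 in these data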;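 note: 100 nL of 1 mM stock went into each well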
Sa ugtP lethal: growth inhibition of ugtP-null S. aureus, primary screen, RN4220 ugtP deletion, OD600; 16 h; some inactives read as strong as hits; growth inhibition, % (test concentration not listed); actives 0.54% (n = 330,000); AID 1259309, 2017;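 active = z-score under -3 and OD600 up to 0.15 on both plates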;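 note: plate controls were untreated wells for no effect and antibiotic for full effect; wells of about 80 µL received 100 nL stock; the first replicate is given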
PrP UTR inh: inhibition of PrP 5' UTR reporter expression; actives 0.35% (n = 340,000); inhibition, % (no concentration beside the values); cell-based PrP 5' UTR mRNA reporter, plate reader;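 active = every replicate at 50% or more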;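 note: 0 = median of the neutral control wells; tested in H4 reporter cells; numbers are from one replicate; inactives centre near -14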
BJeLR viability: MLPCN primary cell-based screen for lethality selective to Ras in HRASV12 cells; BJeLR (HRASV12) viability, CellTiter-Glo ATP luminescence, 48 h; reference of the scale not given here; inhibition, % (test concentration not listed); actives 0.17% (n = 300,000);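 active = replicate mean above 50%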;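 note: 50 nL library stock added to about 25 µL; numbers are from one replicate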
RN4220 kill: growth inhibition of S. aureus RN4220, primary screen, OD600; 16 h; inhibition, % (test concentration not listed); actives 0.33% (n = 330,000); AID 1259311, 2017;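 active = z-score of -3 or lower and OD600 up to 0.18 on both plates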;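 note: plate controls were untreated cells for no effect and reference antibiotic for full effect; stock transfer was 100 nL into about 80 µL; one replicate is shown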
Mtb hypoxia inh growth: recorded beside Mtb hypoxia inh, whose call it bears; growth inhibition, %; measured here: M. tuberculosis growth (absorbance);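 0% = vehicle and 100% = reference antibiotic; read after six days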
Active calls of the source: *; nt = not tested or not shown.

SMILES	Mtb hypoxia inh	Mtb hypoxia inh growth	Autofluor counter	Sa ugtP lethal	PrP UTR inh	BJeLR viability	RN4220 kill
Cc1nc(CC(=O)NNS(=O)(=O)c2ccc3ccccc3c2)cs1	5	9	2115	-3	-14	2	1.9
CCOC(OCC)c1cc2ccccc2cn1	7	7	3501	-1	-28	nt	3.9
COc1cc2c(cc1OC)CN(C(=O)c1ccc(Cl)c(S(=O)(=O)N3CCCC3)c1)CC2	6	-6	4136	7	-4	nt	6.2
COc1ccccc1-n1c(-c2ccc(NS(C)(=O)=O)cc2)n[nH]c1=S	11	3	4425	7	-91	-5	0.3
O=C1CC(N2CCN(Cc3ccccc3)CC2)C(=O)N1c1ccc2c(c1)OCCO2 (centres undefined)	-4	7	4286	2	5	9	1.9
Nc1cc(N2CCCCC2)c([N+](=O)[O-])cc1Cl	1	2	10319	-8	-23	-1	5.7
CC1Cc2ccccc2N1S(=O)(=O)c1cccc(C(=O)NCCCO)c1 (centres undefined)	-1	2	3250	-4	-11	-2	6.1
COc1ccc(C=NNC(=O)C(=O)NCc2cccnc2)cc1OC	13	5	nt	2	nt	nt	-2.6
O=C(OCC(=O)N1CCCc2ccccc21)c1cc(Cl)ccc1O	5	-2	5782	3	-12	8	4.4
Cc1ccc(-c2nc(N3CCOCC3)sc2C(=O)N2CCCCC2)cc1	1	12	2189	-5	-12	-3	3.4
Cc1ccc(S(=O)(=O)N2CCN(C(=O)COc3ccc(Br)cc3)CC2)cc1	-14	1	6266	3	0	nt	-0.3
CC(=O)Nc1ccc(/C=C(\C#N)C(=O)NC2CCCCC2C)cc1 (centres undefined)	14	7	2462	8	-32	9	2.0
Cc1ccsc1/C=C1\C(=O)NC(=S)N(C)C1=O	-4	-1	3324	-7	-36	4	0.8
N#Cc1ccc(N2CCNCC2)c(F)c1	7	10	3193	-3	-14	-3	-15
CCC(C)C(=O)Nc1ccccc1N1CCN(c2ccc(F)cc2)CC1 (centres undefined)	10	9	3350	10	-25	-6	-0.9
Cc1c(Cl)cccc1NC(=O)Nc1cnccn1	-2	-3	6033	-6	-9	7	0.7
CCC1CN(C(=O)NCc2ccc(F)cc2)c2cc(C)ccc2O1 (centres undefined)	-5	3	3785	6	-13	-3	-1.8
O=C(NCc1ccco1)c1cccc(F)c1	16	18	7864	-1	-31	-5	-2.6
O=C(NC(=S)Nc1ccc(N2CCOCC2)c(Cl)c1)c1sc2ccccc2c1Cl	-10	-1	2483	20	-31	-1	-1.3
CC(C)c1onc(C(=O)N2CCN(C(c3ccccc3)c3ccccc3)CC2)c1[N+](=O)[O-]	nt	nt	3912	1	-2	91*	-3.0
CC(C)CNC(=O)CON=Cc1ccccc1Cl	-9	3	nt	-1	nt	nt	-1.1
NCCCCC1CN=C(N)N1CCc1cccc2ccccc12 (centres undefined)	6	-1	nt	5	nt	nt	3.2
O=C(NCC1CCCCC1)c1cc(Br)ccc1Cl	nt	nt	4416	1	13	2	9.0
CC1=NN(c2nc(-c3ccc(C#N)cc3)cs2)C(=O)C1	-4	0	nt	-1	nt	0	21
CC1=NC(=O)C(N=Nc2ccccc2)N1c1ccccc1 (centres undefined)	10	1	2889	-13	-124	1	-4.2

Next part; the last 7 above are carried over.
SMILES	Mtb hypoxia inh	Mtb hypoxia inh growth	Autofluor counter	Sa ugtP lethal	PrP UTR inh	BJeLR viability	RN4220 kill
O=C(NC(=S)Nc1ccc(N2CCOCC2)c(Cl)c1)c1sc2ccccc2c1Cl	-10	-1	2483	20	-31	-1	-1.3
CC(C)c1onc(C(=O)N2CCN(C(c3ccccc3)c3ccccc3)CC2)c1[N+](=O)[O-]	nt	nt	3912	1	-2	91*	-3.0
CC(C)CNC(=O)CON=Cc1ccccc1Cl	-9	3	nt	-1	nt	nt	-1.1
NCCCCC1CN=C(N)N1CCc1cccc2ccccc12 (centres undefined)	6	-1	nt	5	nt	nt	3.2
O=C(NCC1CCCCC1)c1cc(Br)ccc1Cl	nt	nt	4416	1	13	2	9.0
CC1=NN(c2nc(-c3ccc(C#N)cc3)cs2)C(=O)C1	-4	0	nt	-1	nt	0	21
CC1=NC(=O)C(N=Nc2ccccc2)N1c1ccccc1 (centres undefined)	10	1	2889	-13	-124	1	-4.2
CC(C)CN1CCN(Cc2c(F)cccc2Cl)CC1CCO (centres undefined)	0	18	4211	-2	-26	4	2.4
Cc1cc(N2C(=O)C(O)=C(C(=O)c3ccc(C)o3)C2c2ccc([N+](=O)[O-])cc2)no1 (centres undefined)	-7	3	6138	9	-21	2	9.7
O=C(NOC(=O)c1ccccc1)c1ccccc1	-1	2	nt	9	-11	1	2.2
CCOc1ccccc1NC(=O)COC(=O)Cc1ccc(-c2ccccc2)cc1	-6	-1	2522	-1	-15	-21	4.8
Cc1c(NS(=O)(=O)c2ccc([N+](=O)[O-])cc2)c(=O)n(-c2ccccc2)n1C	1	8	3485	8	-8	-6	-0.3
CC(C)(C)c1ccccc1NC(=O)CN1C(=O)NC2(CCCCCC2)C1=O	4	6	4107	4	-3	nt	-0.7
Cc1ccc(C(C(=O)NC2CCCC2)N(Cc2ccco2)C(=O)CCC(=O)Nc2ccccn2)cc1 (centres undefined)	nt	nt	2580	-4	-20	-3	-2.1
O=c1[nH]c(=O)n(Cc2ccco2)c(O)c1C=NC1CC1	-1	0	2313	0	-8	7	1.0
CC(NS(=O)(=O)c1ccccc1)C1COc2ccccc2O1 (centres undefined)	nt	nt	2816	3	-8	-5	5.6
O=C(CN1CCCC1)Nc1nc(-c2ccc3c(c2)CCN3C(=O)c2ccccc2F)cs1	2	2	4032	-11	-10	4	-4.9
CNC(=S)Nc1cc(Cl)ccc1Oc1ccccc1	8	-1	2503	3	-13	-12	2.8
COc1cc(CC(=O)NCc2cccs2)cc(OC)c1OC	nt	nt	2868	2	3	-2	3.5
COc1ccc(C2=NN(C(=O)CCC(=O)O)C(c3cccs3)C2)cc1 (centres undefined)	nt	nt	4053	nt	-25	13	nt
Cc1nc(Cl)c(C(=O)Nc2cccc(F)c2)c(C)c1Cl	15	8	4451	4	-6	5	-3.2
COc1ccc2ccccc2c1C1CC(=O)N2CN(C3CCCCC3)CSC2=C1C#N (centres undefined)	4	7	4982	-13	-18	1	-3.1
O=C(CCc1ccccc1)Nc1cc(S(=O)(=O)N2CCOCC2)ccc1N1CCCC1	-8	-3	4492	2	-17	nt	2.4
O=C(CN1CCC(N2CCCCC2)CC1)N1CCOCC1	1	-7	nt	-2	nt	3	1.8
CC=C(C)C(=O)Nc1cccc(C2=NOC3(C2)CC(C(N)=O)N(C(=O)C=CCC)C3)c1 (centres undefined)	5	2	nt	4	nt	nt	7.9
CC(=NNS(=O)(=O)c1ccc(Cl)cc1)c1ccc(O)cc1	13	6	nt	5	nt	nt	1.8
C[C@]12C(=O)N(c3ccc(F)cc3)C(=O)N1[C@@H]1c3ccccc3OC[C@@H]1[C@H]2c1ccccc1	4	0	3930	-8	-10	5	-13
COC(=O)C1=CN(c2ccc(OC)cc2)C=C(C(=O)OC)C1c1cccc(F)c1	4	3	4257	16	-36	2	4.1
CN(C)c1ccc(CNC(=O)CN(C)S(=O)(=O)c2cccc3cccnc23)cc1	nt	nt	6102	1	-5	5	-1.2
Cc1c(NC(=O)C2CCN(S(=O)(=O)c3ccccc3)CC2)c(=O)n(-c2ccccc2)n1C	-3	2	2772	2	-13	-12	6.9
O=C(NCC(c1cccnc1)N1CCOCC1)Nc1ccccc1 (centres undefined)	9	5	6534	11	-23	-10	1.0
COC(=O)c1c(C)[nH]c(C(=O)CN2C(=O)C3CC=CCC3C2=O)c1C (centres undefined)	9	6	6350	2	-22	nt	1.8

3 compounds from above, showing only Mtb hypoxia inh, Mtb hypoxia inh growth and RN4220 kill.
canonical_smiles | Mtb hypoxia inh | Mtb hypoxia inh growth | RN4220 kill
COc1cc(CC(=O)NCc2cccs2)cc(OC)c1OC | nt | nt | 3.5
COC(=O)c1c(C)[nH]c(C(=O)CN2C(=O)C3CC=CCC3C2=O)c1C (centres undefined) | 9 | 6 | 1.8
Cc1nc(Cl)c(C(=O)Nc2cccc(F)c2)c(C)c1Cl | 15 | 8 | -3.2

(further entries)
SMILES	Mtb hypoxia inh	Mtb hypoxia inh growth	Autofluor counter	Sa ugtP lethal	PrP UTR inh	BJeLR viability	RN4220 kill
COc1ccc(O)c(C=NNC(=O)CCn2nnc3ccccc32)c1	0	-5	nt	-1	nt	nt	1.6
C[C@H]1CN([C@@H](C)CO)C(=O)Cc2cc(NC(=O)Cc3ccccc3)ccc2O[C@H]1CN(C)C(=O)Nc1cccc2ccccc12	0	-4	2905	14	-1	nt	14
COc1ccc(Cc2nnc(NS(=O)(=O)c3ccccc3)s2)cc1	16	7	3282	-2	-2	2	2.4
COc1ccc(/C=C(/NC(=O)c2ccccc2)C(=O)NN=Cc2ccncc2)c(OC)c1	0	-1	nt	0	nt	nt	-2.2
COc1ccccc1NC(=O)Nc1nc(CC(=O)N2CCN(c3ccc(F)cc3)CC2)cs1	9	-7	6554	-2	-32	-9	4.8
O=C(CNc1cccc(S(=O)(=O)N2CCCC2)c1)Nc1cccc(C(F)(F)F)c1	-9	9	3740	-23	-14	nt	-2.4
O=C(NC(Cc1cccc(F)c1)C(=O)O)C1CCCCC1 (centres undefined)	6	8	2900	-10	-15	nt	2.8
CCC(C)n1c(C)cc(C(N)=O)c1C (centres undefined)	3	-3	3258	5	-3	-9	0.6
CC1CN(Cc2nc3c(c(=O)[nH]c(=O)n3C)n2CCN2CCOCC2)CC(C)O1 (centres undefined)	0	-5	11315	1	-6	3	4.2
CCc1nnc(NC(=O)C2CCN(c3ncnc4sc(C)c(C)c34)CC2)s1	6	0	8015	-1	-20	nt	2.0
COc1cccc(N2CC(C(=O)Nc3nnc(SCc4ccccn4)s3)CC2=O)c1 (centres undefined)	9	5	9895	1	-38	13	0.5
CCOC(=O)/C(C#N)=C/Nc1ccsc1C(=O)OC	2	-6	4174	7	-26	3	3.4
O=C(NC1CCCC1)C(c1cccs1)N(C(=O)c1ccco1)c1ccc2c(c1)OCCO2 (centres undefined)	20	-24	2893	-6	11	0	-17
COc1cc(OC)c2c(=O)c(OC)c(-c3ccc(OC)c(OC)c3)oc2c1	nt	nt	5525	-10	2	-2	9.3
COc1ccccc1NC(=O)CSc1nn2c(=O)c(C)nnc2s1	8	-6	4300	4	8	-15	3.8
O=C(Cc1ccc(Cl)cc1)NCCS(=O)(=O)N1CCN(c2ccccc2F)CC1	0	-4	nt	7	-10	1	-2.2
COc1cc(OC)c(OC)cc1CNC(=O)c1cccc(S(=O)(=O)N2CCc3ccccc3C2)c1	-12	-2	5539	2	-7	nt	3.1
FC(F)(F)c1ccc(-c2noc(CN3CCCN(C4CCCCC4)CC3)n2)cc1	nt	nt	4629	nt	2	0	nt
COc1ccc(C2CC(=O)c3cnc(NC(=O)c4ccccc4)nc3C2)cc1OC (centres undefined)	-1	5	5581	-4	17	-1	3.6
Cc1ccc(-c2csc(N(CC3CCCO3)C(=O)c3ccco3)n2)cc1 (centres undefined)	6	-1	2179	18	-7	13	6.1
COc1ccc(C2=NOC(CNC(N)=S)C2)cc1 (centres undefined)	nt	nt	4564	83*	-61	7	73
NC(=NN=Cc1ccc(-c2ccc(O)c(C(=O)O)c2)o1)N[N+](=O)[O-]	5	9	nt	1	nt	nt	3.2
Cc1ccccc1C=NNc1ccc(Cl)nn1	25	4	nt	-12	nt	nt	4.2
CN1CCc2c(sc(N=Cc3cc(C(C)(C)C)ccc3O)c2C#N)C1	0	-4	nt	-2	nt	nt	0.2
Cc1ccc(NC(=O)N2CCc3ccccc3C2)c(C)c1	-3	6	6143	-4	-17	2	-2.0

Rewritten with each value named: part of the list above
COc1cc(OC)c2c(=O)c(OC)c(-c3ccc(OC)c(OC)c3)oc2c1
  Mtb hypoxia inh: nt; Mtb hypoxia inh growth: nt; Autofluor counter: 5525; Sa ugtP lethal: -10; PrP UTR inh: 2; BJeLR viability: -2; RN4220 kill: 9.3

O=C(NC1CCCC1)C(c1cccs1)N(C(=O)c1ccco1)c1ccc2c(c1)OCCO2 (centres undefined)
  Mtb hypoxia inh: 20; Mtb hypoxia inh growth: -24; Autofluor counter: 2893; Sa ugtP lethal: -6; PrP UTR inh: 11; BJeLR viability: 0; RN4220 kill: -17

Cc1ccc(NC(=O)N2CCc3ccccc3C2)c(C)c1
  Mtb hypoxia inh: -3; Mtb hypoxia inh growth: 6; Autofluor counter: 6143; Sa ugtP lethal: -4; PrP UTR inh: -17; BJeLR viability: 2; RN4220 kill: -2.0

The order is random (roughly 4% active in at least one column).
